# MgrA DNA FP: modulators of Staphylococcus aureus MgrA DNA binding; fluorescence polarization; inhibition, %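 (about 10 µg/mL by stock and volumes)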; actives 0.13% (n = 84,000);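 active = above 50% in either of two replicates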;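 also: 0% = protein plus DNA without compound and 100% = DNA alone without protein; higher means less MgrA bound to DNA so lower polarization; one replicate is shown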
# S aureus helic: S. aureus DNA helicase inhibition | actives 0.05% (n = 120,000) | purified S. aureus helicase, fluorescence unwinding assay; about half of the hits fall short of the stated cut | inhibition, %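 (tested at about 80 µM)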;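 active = both duplicates at 50% or more, or one of them with a favoured structure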;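 also: 0% = mean of negative control wells and 100% = mean of positive control wells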
# Active calls of the source: *; . = not tested or not shown.
# Second line of a record: MgrA DNA FP | S aureus helic
CC1(C)S[C@@H]2[C@H](NC(=O)[C@H](N)c3ccccc3)C(=O)N2[C@H]1C(=O)OC1OC(=O)c2ccccc21 (some centres not stated)
    -0.1 | .
O=C(COC(=O)COc1ccccc1)Nc1cccc2ccccc12
    -0.1 | -24
CN1CCOC(=O)/C1=N\Nc1cc(Cl)ccc1Cl
    . | -1
CCOc1cc(C2C(C(=O)OCCOc3ccccc3)=C(C)NC3=C2C(=O)CC(C)(C)C3)ccc1O (configuration not stated)
    0.6 | .
Cc1cccc(NC(=O)c2sc3nc(-c4ccccc4)cn3c2C)n1
    . | 8
c1ccc(-c2nc3ccccc3o2)c(-c2nc3ccccc3o2)c1
    . | -30
Cc1sc2ncnc(N3CCN(c4cccc(C(F)(F)F)c4)CC3)c2c1C
    -3.5 | -2
O=C(Nc1cccc(-c2nc3ncccc3o2)c1)c1ccccc1
    . | -3
CCNc1nnc(-c2nn(CC(C)C)c(=O)c3ccccc23)s1
    . | -9
COc1ccc(/C=C/C(=O)Nc2sc3c(c2C(=O)O)CCCC3)cc1
    . | 25
CSc1c2c(c(C#N)c3nc4ccccc4n13)CCCC2
    0.7 | .
O=C(NCC1COc2ccccc2O1)c1ccc2c(c1)OCO2 (configuration not stated)
    . | 7
O=C(Nc1ccc(F)cc1)N1CCC2(CC1)C(=O)NCN2c1ccccc1
    0.1 | 10
COc1ccc(C)cc1NC(=O)c1cc(C2CC2)[nH]n1
    -1.2 | 15
Cc1cc(NC(=O)c2cc3c(s2)CCCC3)no1
    -0.6 | -16
Cc1cc(=O)oc(C)c1C(=O)OCC(=O)c1ccc(Cl)c(Cl)c1
    2.9 | 5
Clc1ccc(Nc2nc(Nc3cccc(Cl)c3)nc(N3CCOCC3)n2)cc1
    . | -3
Nc1nnc(C(F)(F)F)s1
    -1.4 | .
COc1cc(C(=O)Nc2ccc3nc(N4CCN(c5ncccn5)CC4)cc(C)c3c2)cc(OC)c1OC
    . | -6
CC(C)c1ccccc1NS(=O)(=O)N(C)C
    2.2 | -9
COC(=O)c1cc2c(C(F)(F)F)cc(-c3ccccc3)nc2s1
    0.5 | 26
CCOC(=O)c1c(C)[nH]c(C)c1C(=O)COC(=O)C1CC(=O)N(CCc2ccccc2)C1 (configuration not stated)
    . | 15
O=C(COC(=O)Cc1ccsc1)NCC1CCCCC1
    -1.1 | 11
O=S1(=O)C=CC(Nc2ccccc2Cl)C1 (configuration not stated)
    -0.4 | 7
CCN1C(=O)N(C)C2C1N(C)C(=O)N2CC (configuration not stated)
    -0.4 | 7
C/C=N/N(c1ccccc1)c1ccccc1
    -0.4 | 18
O=C(NCCc1ccccc1)c1cnc2sccn2c1=O
    . | -1
O=C1C=CC(=O)N1c1ccc(Br)cc1
    1.3 | .
Cc1cc(Cl)c(S(=O)(=O)N2CCSCC2)cc1OCC(N)=O
    -0.4 | 2
O=C(COC(=O)c1ccc(O)cc1)NC(c1ccccc1)c1ccccc1
    -1.8 | -6
Cc1nn(-c2ccccc2)c(Cl)c1C(N)=O
    -0.6 | 6
COc1cc(NC(=O)c2cc3n(n2)C(C(F)(F)F)CC(c2ccc(Br)cc2)N3)cc(OC)c1OC (configuration not stated)
    -1.4 | .
CC1Cc2ccccc2N1C(=O)c1cc2sccc2n1Cc1ccc(F)cc1 (configuration not stated)
    3.2 | 11
Cc1ccccc1S(=O)(=O)Nc1nc2ccccc2nc1NCCO
    . | -12
COc1ccc(C(=O)c2cc3cc([N+](=O)[O-])ccc3o2)cc1
    -5.1 | .
Oc1ccccc1N1CCN(CCOc2ccc(Cl)cc2Cl)CC1
    . | 4
O=C1N/C(=C/c2ccco2)C(=O)N1c1cccc(Cl)c1
    7.6 | 16
Cc1sc2nc(SC3CCOC3=O)[nH]c(=O)c2c1C (configuration not stated)
    . | 16
O=c1c2c3c(sc2ncn1CCn1cnc2sc4c(c2c1=O)CCCC4)CCCC3
    0.9 | 2
CC(C)(C)C(=O)CSc1ccc(Br)cc1
    3.4 | 0
O=C(O)CN(CC(=O)O)Cc1cc2c(-c3ccccc3C(=O)O)c3cc(CN(CC(=O)O)CC(=O)O)c(=O)cc-3oc2cc1O
    30 | .
CN1CCN(C(=O)c2cc(N3CCCCC3)ccc2N)CC1
    . | -21
Cc1ccc(/C(O)=C2/C(=O)C(=O)N(CCCN3CCOCC3)C23C(=O)N(C)c2ccccc23)cc1F (configuration not stated)
    -0.6 | 8
FC(F)(F)c1ccccc1CN1CCN(CC2CC3C=CC2C3)CC1 (configuration not stated)
    -4.2 | 6
CCSc1nc2c(cnn2-c2ccccc2)c(=O)[nH]1
    . | 6
Cc1cnc(=O)[nH]c1SCc1ccc(Cl)cc1
    . | 4
O=C(O)c1ccc(S(=O)(=O)Nc2ccc3oc4c(c3c2)C(=O)CCC4)cc1
    6.2 | 12
O=C(/C=C/c1ccccc1)NCC1CCCO1 (configuration not stated)
    -0.1 | 13
O/N=C/c1cccn1-c1ccc(Br)cc1
    -2.8 | .
O=C(NCc1ccc2[nH]c3c(c2c1)CCCC3)c1cccs1
    . | 10

# Next section:
# Second line of a record: MgrA DNA FP | S aureus helic
CCOC(=O)N1CCN(c2ccc(Cl)c(Cl)c2)CC1
    1.9 | 8
C=CCSC1=N/C(=C\C=C\c2ccco2)C(=O)S1
    13 | 5
O=C(/C=C/c1ccc2ccccc2n1)NCC(F)(F)F
    . | -5
Cc1ccc2c(CC(=O)NC(C)C)coc2c1C
    -0.7 | 9
COc1ccc(-n2c(O)c(/C=N/c3ncn[nH]3)c3ccccc3c2=O)cc1OC
    . | 0
O=C(NN=C1CCCC1)c1ccccc1NS(=O)(=O)c1cccs1
    . | 3
CCCCc1nc(-c2ccc(OCC)c(OC)c2)no1
    3.2 | -25
Sc1c(C=Nc2ccc(Br)cc2)sc2ccccc12
    -0.6 | -1
Nc1ccc(C(=O)OCCCc2nc3ccccc3[nH]2)cc1
    . | 4
O=[N+]([O-])c1ccc(Sc2ccc(F)cc2)c2nonc12
    4.0 | .

# One compound at a time, as listed above:
# `CCCCc1nc(-c2ccc(OCC)c(OC)c2)no1` across the screens: MgrA DNA FP: 3.2; S aureus helic: -25
# `O=C(NN=C1CCCC1)c1ccccc1NS(=O)(=O)c1cccs1` across the screens: MgrA DNA FP: .; S aureus helic: 3

# Continued:
# Second line of a record: MgrA DNA FP | S aureus helic
CCOC(=O)c1ccccc1NC(=O)CCc1nc(-c2ccc(OC)cc2)no1
    . | 17
O=C(Nc1ccc2ncccc2c1)c1ccccc1
    -1.0 | 3
CCCOc1cccc(C(=O)Nc2cccc(C(=O)Nc3nccs3)c2)c1
    . | 10
NC(=O)C1CCN(C(=O)c2cc3cc(Br)ccc3oc2=O)CC1
    . | -22
O=C(O)CC(=O)N1CCSc2ccccc21
    . | 19
CCc1nc2ccc(C(=O)N3CC(C)CC(C)C3)cc2nc1CC (configuration not stated)
    . | 11
Cc1[nH]c2ccccc2c1/C=N/n1c(-c2cc3ccccc3o2)csc1=NC1CC1
    . | -18
O=C(CSCC(=O)Nc1ccccc1Oc1ccccc1)Nc1ccc2ccccc2c1
    -2.2 | 13
CN(C(=O)CSc1ncn[nH]1)C1(C#N)CCCCC1
    . | 11
CS(=O)(=O)N1C(=O)CCC1=O
    22 | 4

# Arranged by SMILES length (falling): some entries from above.
# Second line of a record: MgrA DNA FP | S aureus helic
O=C(CSCC(=O)Nc1ccccc1Oc1ccccc1)Nc1ccc2ccccc2c1
    -2.2 | 13
CCc1nc2ccc(C(=O)N3CC(C)CC(C)C3)cc2nc1CC (configuration not stated)
    . | 11
CS(=O)(=O)N1C(=O)CCC1=O
    22 | 4

# (continued)
# Second line of a record: MgrA DNA FP | S aureus helic
CCOC(=O)c1cc(C)n(CC2CCC(C(=O)NCc3ccco3)CC2)c1C (configuration not stated)
    . | -19
Clc1cccc(Oc2cnc3ccccc3n2)c1
    0.8 | .
NNC(=O)COc1c(Br)cc(Br)c2cccnc12
    . | -4
CCCN(CC(=O)Nc1ccccc1C)C(=O)c1cn2ccccc2n1
    . | 24
COc1ccc(/C=C2\N=C(SC)NC2=O)cc1
    0.1 | 6
O=C(CCCCl)Nc1ccc(C(O)(C(F)(F)F)C(F)(F)F)cc1
    -0.2 | -3
CC(C)(C)NC(=O)CSc1nc2[nH]c(=O)cc(O)c2s1
    9.4 | 2
COC(=O)CCNc1ccc2ccccc2c1
    0.1 | 10
N#CCCN1C(=O)c2cccc3c(Cl)ccc1c23
    1.4 | -9
N#Cc1cc(-c2ccccc2C(F)(F)F)no1
    -1.4 | 8
Cc1c(Cc2ccccc2)c(=O)oc2cc(OC(=O)c3ccco3)ccc12
    1.6 | 8
O=c1oc2ccc([N+](=O)[O-])cc2cc1-c1nnc(Nc2ccc(Cl)cc2Cl)s1
    0.2 | .
Cc1[nH]c2ccccc2c1C(=O)CSc1nncn1C
    . | 8
CCCn1nnc(NC(=O)COc2ccccc2)n1
    -0.7 | 9
CCCC(=O)Nc1ccc2oc(=O)ccc2c1
    -1.9 | 9
Cc1nn(-c2ccccc2)nc1C(=O)NNC(=O)c1ccccc1
    0.1 | .
CCOC(=O)CSc1nc(C)cs1
    -3.0 | 4
CCOc1cc(C#N)c(NC(=O)Cc2cccs2)cc1OCC
    . | 12
CCOC(=O)NC(c1ccccc1F)C1CCc2ccccc2C1=O (configuration not stated)
    0.1 | .
Cc1c2ccc(Cl)cc2s[n+]1C
    . | -4

# Some of the entries so far, with bars between the fields.
Structure | MgrA DNA FP | S aureus helic
NC(=O)C1CCN(C(=O)c2cc3cc(Br)ccc3oc2=O)CC1 | . | -22
COc1cc(C(=O)Nc2ccc3nc(N4CCN(c5ncccn5)CC4)cc(C)c3c2)cc(OC)c1OC | . | -6
COc1ccc(/C=C2\N=C(SC)NC2=O)cc1 | 0.1 | 6
Cc1ccc(/C(O)=C2/C(=O)C(=O)N(CCCN3CCOCC3)C23C(=O)N(C)c2ccccc23)cc1F (configuration not stated) | -0.6 | 8

# Continued.
# Second line of a record: MgrA DNA FP | S aureus helic
O=C(O)c1ccc(/C=N/O)cc1
    . | -5
Cc1ccc(S(=O)(=O)Nc2ccc(-c3nnc4n3CCCCC4)cc2)cc1C
    . | -9
CN(C)Cc1ccccc1CNC(=O)CC1C=CCC1 (configuration not stated)
    . | 0
COC(=O)C1=C(C)N=c2s/c(=C3\C(=O)N(C(C)=O)c4ccccc43)c(=O)n2C1c1ccc(OC)cc1 (configuration not stated)
    0.7 | .
COc1ccc(C2Nc3ccccc3C(=O)N2c2cccc3ccccc23)cc1COc1c(C)cccc1C (configuration not stated)
    0.4 | .
Cc1cc(C(=O)NC(C)C2CCCO2)c(C)o1 (configuration not stated)
    -8.7 | -13
Nc1cc(=O)[nH]c(SCc2nc(-c3cccs3)no2)n1
    . | -34
COc1ccc(C(CC(=O)N2CCOCC2)c2ccc(F)cc2)cc1 (configuration not stated)
    -4.8 | 9
Cc1ccc2nc(SCc3nc4cccc(C)n4c3Br)[nH]c2c1
    4.7 | 7
Cc1ccnc(NS(=O)(=O)c2ccc(NC(=O)c3cc(-c4ccccc4)nc4ccccc34)cc2)n1
    -2.3 | .
c1ccc(CC(NCc2c[nH]c3ccccc23)c2ccccc2)cc1 (configuration not stated)
    . | 20
OCCn1c(-c2ccccc2)nc2ccccc21
    4.0 | -22
Cc1ccc(S(=O)(=O)NC(=O)N2CCCN(C(=O)OC(C)(C)C)CC2)cc1
    -3.0 | .
COCc1c(C(=O)OCC(=O)c2ccc(OC(F)F)cc2)oc2ccccc12
    . | 8
O=C1c2ccccc2C(=O)N1CC(O)Cn1nnc2ccccc21 (configuration not stated)
    . | 12
O=S(=O)(Nc1ccccc1)N1CCCCC1
    . | 22
CC(=O)N(c1ccc(Br)cc1)C1C=CS(=O)(=O)C1 (configuration not stated)
    -2.5 | 3
O=C1c2ccccc2C(Nc2ccc(S(=O)(=O)N3CCCCC3)cc2)N1Cc1ccco1 (configuration not stated)
    . | -28
COC(=O)c1nnn(CC(=O)N(c2ccccc2)c2ccccc2)c1C(=O)OC
    . | -1
COc1nc(N(C)C)nc(N(C)C)n1
    -0.8 | 4
COC(=O)c1ccccc1NC(=O)CSc1ccccc1
    -1.6 | 3
Cc1c(C(=O)O)sc2ncnc(N3CCCC3)c12
    6.3 | 23
CCC(=O)/C=C1/Sc2ccc(C)cc2N1CC
    3.6 | 1
CSc1nnc2nc(C)cc(C)n12
    1.6 | 2
O=C1/C(=C/c2cn[nH]c2-c2ccccc2)Sc2ccccc21
    -1.2 | .
CN(C)Cc1ccccc1CN
    . | -7
CC(=O)N(C(C)=O)c1ccc(C)cc1
    1.4 | 17
CN(C)C1=NC(C(F)(F)F)(C(F)(F)F)N=C(c2cccnc2)O1
    . | 29
CCn1c(=O)c(-c2ccc3ccccc3n2)cc2cc(Cl)ccc21
    -0.2 | 15
CCNc1sc2c(O)cc(=O)[nH]c2c1C#N
    6.0 | -1
Cc1nn(-c2ccccc2)c2sc(C(=O)NCc3ccccc3)cc12
    0.1 | -3
COc1ccc(/C=C2\C(=O)Nc3ccccc32)c(OC)c1
    . | 12
O=C(O)C1C2C=CC(O2)C1C(=O)N1CCOCC1 (configuration not stated)
    16 | 2
c1ccc2c(c1)CCCN2c1nc(N2CCOCC2)nc(N2CCOCC2)n1
    . | -11
COc1ccc(C2=Nn3c([n+](C)c4ccccc43)SC2)cc1
    -0.8 | 22
CCOC(=O)Cc1nn(CC)c(=O)c2ccccc12
    -0.8 | -1
CCOC(=O)N1C(=O)c2ccccc2NC1(C(F)(F)F)C(F)(F)F
    1.4 | 10
O=C(CSc1ncnc2ccccc12)c1ccccc1
    . | 24
Cc1ccc(-c2cc(-c3cccs3)[nH]n2)c(O)c1
    1.7 | -14
O=c1o[nH]c(-c2ccccc2)c1N=Nc1cc(C(F)(F)F)cc(C(F)(F)F)c1
    2.2 | .
O=C(O)/C=C/c1ccc(S(=O)(=O)N(CCO)CCO)cc1
    0.6 | -6
CCCN(CCC)S(=O)(=O)c1cccc(-c2cn3ccc(C)cc3n2)c1
    -0.8 | 18
CN(Cc1ccc(Cl)c(Cl)c1)Cn1nnc2ccccc2c1=O
    . | -9
NNC(=O)c1ccccc1S(N)(=O)=O
    . | -14

# Screening results deposited in PubChem BioAssay by ICCB-Longwood Screening Facility, Harvard Medical School.

# This is a subset. The share of hits here may be higher or lower than overall.
